# Screening data: PubChem BioAssay, National Center for Advancing Translational Sciences (NCATS)
# HSD17B inh – qHTS Assay for Inhibitors of HSD17B4, hydroxysteroid (17-beta) dehydrogenase 4 | 3-hydroxyacyl-CoA dehydrogenase type-2 (Homo sapiens), Q99714 | recombinant HSD17B10, NADH fluorescence kinetic; many of its hits are not listed in these tables | Potency, µM (doses to about 57.1 µM), inactives show at the top dose activity change, negative = inhibition, usual class: inhibitors | 7.6% of 75,000 active; active = well fitted inhibition curve with a large enough effect; inconclusive = small, poorly fitted or top-dose-only effect; inactive = no such curve, though single readings can be large or run the other way;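 note: the protocol describes HADH2 (HSD17B10) and not the HSD17B4 of the title; nearly all actives have a fitted effect of over 70% in size; most hits overshoot -100% by far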
#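 Activity followed as NADH fluorescence increase (ex 360, em 450 nm) every 30 seconds for 4 min, using final 90 uM beta-hydroxybutyryl CoA and 1 mM NAD+. Recombinant His-tagged enzyme, 20 nM, pH 9.0 Tris buffer, 15 min compound preincubation.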
# An asterisk follows results filed as active; ? = inconclusive; & = joins results of further samples; [ ] = remark or other dose. % is set by controls: 0 for no effect and ±100 for the full control effect; potency is the fitted concentration of half-maximal effect.
SMILES,HSD17B inh
COc1ccccc1CN1C(=O)C2CC=CCC2C1=O (stereo not drawn),?
Cc1ccc(S(=O)(=O)NCCC(=O)Nc2nnc(C3CC3)s2)cc1C,-26.9%
Cc1cc(C(=O)OCC(=O)c2ccc3c(c2)OCCO3)c(C)o1,-3.5%
O=C(O)c1nc(-c2ccccc2)[nH]c1C(=O)O,-6.8%[11.4 µM]
COc1ccc(NC(=O)c2ccc(S(=O)(=O)N(C)C)cc2)cc1OC,-0.2%
COc1ccccc1N1CCN(C(=O)CSc2nnc(NC(=O)C3CCC3)s2)CC1,-0.7%
CC(C)CCNC(=O)CN(CCN1CCOCC1)C(=O)Cn1nnc(-c2ccc(F)cc2)n1,-6.9%
NC(=O)CSc1nnc(Cn2c(=O)sc3ccccc32)n1-c1ccccc1,0.1%
CN1CCN(c2nc3c(c(=O)n(C)c(=O)n3C)n2C)CC1,2.4%[11.4 µM]
Cc1cc(OC(=O)CNC(=O)OC(C)(C)C)c2c(C)cc(=O)oc2c1,6.7%
CC(C)=CCC/C(C)=C/CC/C(C)=C/CO,-10.8%&10.5%
Cc1ccc2[nH]c(=O)c(C(c3nnnn3CC3CCCO3)N3CCc4ccccc4C3)cc2c1 (stereo not drawn),6.5%
Cn1cnnc1SCC(=O)Nc1ccccc1Sc1ccccc1,2.4%
COc1ccc(C2SCC(C(=O)O)N2C(C)=O)cc1OC (stereo not drawn),4.6%
CCOC(=O)N/N=C1/C[C@@H](O)[C@@H](O)[C@@H]2[C@@H]3C(=O)N(C[C@@H]4CCCO4)C(=O)[C@H]3CC[C@H]12,1.2%[11.4 µM]
Cc1cc(NC(=O)c2cc(-c3ccc4c(c3)OCO4)on2)n(-c2ccccc2)n1,-18.6%
Nc1nc(C2CCCN2S(=O)(=O)c2ccc(Cl)cc2)cs1 (stereo not drawn),?
CC(=O)N1CCc2cc(C(=O)CN3CCCN(Cc4ccc(F)cc4)C3)ccc21,-6.0%
O=C(Nc1ccc(Br)cc1Cl)Nn1cnnc1,6.2%
Cc1cc(C(=O)OCn2nnc3ccccc3c2=O)c(C)n1-c1ccccc1,-12.7%
Cc1ccc(-c2n[nH]c(=S)n2C)cc1,?
O=C(NCc1ccco1)c1cc(-c2ccccc2)on1,10.3%
CCOC(=O)C1CCCN(CC(=O)Nc2c(C(=O)OC)[nH]c3ccc(Cl)cc23)C1 (stereo not drawn),?
CCOC(=O)c1sc(=NC(=O)c2ccc(S(=O)(=O)N3CCOCC3)cc2)n(C)c1C,50.8%[activator]
CCOCCCNC(=O)Cn1nc(-c2ccccc2)ccc1=O,-8.9%
CC1(C(=O)O)C=CCN1C(=O)c1ccccc1 (stereo not drawn),11.2%
CCN1CCN(CC(=O)NC2CCCCC2)C(=O)C1=O,-1.5%
CCC=O,2.3%
CCOc1ccc(C(=O)NCc2ccco2)cc1,?
COc1cccc(CN2CCN(C(=O)c3cccc4ccccc34)CC2)c1OC,13.0%
Clc1ccc2c(c1)[C@H]1OCC[C@H]1[C@@H](c1ccco1)N2,-4.9%
Cc1cc(NC(=O)C2CCCN(S(=O)(=O)c3c(C)noc3C)C2)n[nH]1 (stereo not drawn),4.5%
O=C(Nc1cccc(C(F)(F)F)c1)C1C2CC3OC(=O)C1C3C2 (stereo not drawn),4.2%
Cc1ccc(Nc2nc(N)nc(CN3CCN(C)CC3)n2)cc1C,9.1%
O=C(CSc1ncnc2nc[nH]c12)N1CCOCC1,8.7%
CCCCOC(=O)C1=C(C)Nc2ncnn2C1c1ccc(OC)c(OC)c1 (stereo not drawn),4.0%
CC(=O)N(Cc1cc2cc(C)c(C)cc2n2nnnc12)CC1COCCO1 (stereo not drawn),-12.9%
COc1ccccc1NC(=O)CSc1nnc(C)o1,?
Clc1ccc(SCCCCn2cncn2)cc1,10.7%
CN(C)c1ccc(NC(=O)CSCc2nc3c(nnn3Cc3ccc(F)cc3)c(=O)[nH]2)cc1,?
Cc1cc(C)c(C(=O)OCCNC(=O)c2cccnc2)cc1C,6.2%
CCOC(=O)C1=C(N)n2c(s/c(=C\c3cccnc3)c2=O)=C(C#N)C1c1cccnc1 (stereo not drawn),2.9%
NC(=O)C1CC(=O)N(c2ccc(OCC(=O)Nc3cccc(C(F)(F)F)c3)cc2)C1 (stereo not drawn),3.5%
COc1ccc(NC(=O)CCc2nc(-c3ccc(C)cc3)no2)c(OC)c1,7.4%
Cc1cc(C(=O)OCC(=O)N2CC(=O)Nc3ccccc32)no1,5.4%
COc1cccc(C2=NC(C)(C)NC(c3ccccc3O)C2)c1 (stereo not drawn),-13.0%
Cc1cc(=O)oc2cc(OCC(=O)N3c4ccccc4CC3C)ccc12 (stereo not drawn),25.1µM*
C=CCN1CCc2c(cc(O)c(O)c2Cl)[C@H](c2ccccc2)C1,25.1µM*
CCOC(=O)c1ccc(N2C(=O)c3n[nH]c(C)c3C2c2ccc(OC)c(OC)c2)cc1 (stereo not drawn),-2.4%
COc1cc(C2N(c3ccc(Cl)cc3)C(=O)C3CCCN32)cc(OC)c1OC (stereo not drawn),8.4%

# (more compounds)
SMILES,HSD17B inh
O=C(C1CCCO1)N1CCN(c2c3c(nc4cc(-c5ccc(F)cc5)nn24)CCC3)CC1 (stereo not drawn),?
COc1ccccc1N1CCN(C(=O)c2cc(C3CC3)on2)CC1,-3.3%
Cc1ccccc1-c1nc(CN2CCC(C(=O)NCCCN3CCOCC3)CC2)c(C)o1,0.6%
CCC12CN3CC(CC)(CN(C1)C3c1ccc(OC(C)C)cc1)C2=O (stereo not drawn),-8.5%
Cc1ccc(C2CC(c3ccc(C)cc3)n3nc(N)nc3N2)cc1 (stereo not drawn),0.0%
O=C(O)CCc1ccc(-c2ccccc2)n1NC(=O)c1ccco1,-10.7%
Cc1cc(C)n(-c2nc3c(c(=O)[nH]c(=O)n3C)n2Cc2ccc(F)cc2)n1,0.0%
O=C(Oc1ccc(-c2cnc3ccccc3n2)cc1)c1ccco1,?
CCS(=O)(=O)c1nc(NC(C)=O)n[nH]1,8.6%
C/C(Nc1ccc(F)cc1)=C(/C#N)C(N)=O,6.4%

# Laid out differently: 6 of the compounds above.
canonical_smiles | HSD17B inh
CC(C)CCNC(=O)CN(CCN1CCOCC1)C(=O)Cn1nnc(-c2ccc(F)cc2)n1 | -6.9%
NC(=O)CSc1nnc(Cn2c(=O)sc3ccccc32)n1-c1ccccc1 | 0.1%
CN1CCN(c2nc3c(c(=O)n(C)c(=O)n3C)n2C)CC1 | 2.4%[11.4 µM]
Cc1cc(OC(=O)CNC(=O)OC(C)(C)C)c2c(C)cc(=O)oc2c1 | 6.7%
CC(C)=CCC/C(C)=C/CC/C(C)=C/CO | -10.8%&10.5%
Cc1ccc2[nH]c(=O)c(C(c3nnnn3CC3CCCO3)N3CCc4ccccc4C3)cc2c1 (stereo not drawn) | 6.5%

# Following part:
SMILES,HSD17B inh
O=C(CCCNS(=O)(=O)c1ccc(Br)cc1)N1CC[C@@]2(O)CCCC[C@H]2C1,-11.4%
Cn1cc(-c2nc3cnc(N4CCNCC4)nc3n(C)c2=O)c2ccccc21,-11.1%
CCOc1cccc(NC(=O)Cc2cccs2)c1,0.4%
COc1ccc(C2(O)CC3CCC(C2)N3c2cc(C)nc(-c3ccccc3)n2)cc1 (stereo not drawn),-4.4%
CC(C)C(OC(=O)c1ccco1)C(=O)NC1CCCCC1 (stereo not drawn),7.3%
COc1ccccc1NC(=O)CSc1nccc(=O)[nH]1,3.16µM*
Cc1c(NC(=O)c2cc(C(C)C)on2)c(=O)n(-c2ccccc2)n1C,-2.7%
OCCCNCc1ccncc1,6.7%[11.4 µM]
O=C(CN(CC(=O)N1CCOCC1)S(=O)(=O)c1ccc(Br)s1)N1CCOCC1,4.6%
O=C1C=C(NCc2ccc(Cl)c(Cl)c2)CC1,4.9%
CCCC(=O)NCCCCNC(=O)CCC,6.8%
Cc1cc(C(=O)CSc2nnnn2-c2ccc(Cl)cc2)c(C)n1CC1CCCO1 (stereo not drawn),-4.8%
O=C1OC(c2ccc(O)c(-c3ccccc3)c2)(c2ccc(O)c(-c3ccccc3)c2)c2c(Cl)c(Cl)c(Cl)c(Cl)c21,7.6%[11.4 µM]
COc1cccc(-c2nccc(NCc3ccccc3OC)n2)c1,-5.5%
CCc1ccc(NC(=O)CS(=O)CC(=O)NCC2OCCc3ccccc32)cc1 (stereo not drawn),0.7%
COc1cccc(C(c2nnnn2Cc2ccc(F)cc2)N2CCC(C(N)=O)CC2)c1OC (stereo not drawn),4.4%
CCn1c2ccccc2c2cc(C3N=C(N)Nc4nc5ccccc5n43)ccc21 (stereo not drawn),0.5%
O=C(c1ccco1)N1CCC2(CC1)CN(Cc1cc(C(F)(F)F)cc(C(F)(F)F)c1)C2,-2.8%
Cc1cccc2cc(C(c3nnnn3Cc3ccccc3)N3CCN(c4ccccc4)CC3)c(=O)[nH]c12 (stereo not drawn),-8.7%
COc1ccccc1CNc1ncnc2ccc(-c3c(C)noc3C)cc12,-0.2%
CO[C@H]1COC(=O)C/C=C\[C@H](C)[C@@H](NS(=O)(=O)c2ccc(C)cc2)COC(=O)C/C=C\[C@@H]1C,-0.3%&1.0%[11.4 µM]
Cn1c(=O)c(=O)n(C)c2cc(S(=O)(=O)N3CCC(Cc4ccccc4)CC3)ccc21,-10.2%
COc1ccc2nc3oc(C(=O)NCc4cccs4)cc3cc2c1,12.6µM*
COC1=CC(=O)C(O)=C/C1=C\C=C\c1ccccc1,25.1µM*
COc1cc(OC)cc(-c2nnc(SCC(=O)N3c4ccccc4Sc4ccccc43)o2)c1,-6.3%
CC1(C)CC[C@]2(C(=O)O)CC[C@]3(C)C(=CCC4[C@@]5(C)CC[C@H](O)C(C)(C)C5[C@H](O)C[C@]43C)C2C1 (stereo partly drawn),-6.7%
CCOC(=O)Cc1csc(NC(=O)c2cnc3scc(C)n3c2=O)n1,-13.0%
Cc1[nH]c(=O)[nH]c(=O)c1S(=O)(=O)N1CCCC(C(=O)NCCc2ccccc2)C1 (stereo not drawn),4.9%
C[C@@H](C(=O)Nc1ccc2ccccc2c1)[C@H]1C[C@]1(C)[C@H](NS(=O)(=O)c1ccccc1)c1ccccc1,2.8%
C=CCn1c(C)cc(C(=O)CSc2nnc(-c3cccc(S(=O)(=O)N(CC)CC)c3)o2)c1C,-23.1%
O=c1cc(N2CCc3ccccc3C2)[nH]c(=O)n1Cc1ccc(F)cc1,-7.9%
CC(=O)c1ccc(OCCCC(=O)OCC(=O)N2CCN(c3ccccc3)CC2)cc1,-1.4%
CSc1nc2c(c(=O)n1Cc1ccccc1)SC(C)C2 (stereo not drawn),-2.7%
Cc1ccc2c(c1)[C@H]1OCC[C@H]1[C@@H](c1ccncc1)N2,1.7%
COc1cc(-c2nc3cnccc3n2C)cc(OC)c1OC,-0.3%
Cc1occc1C(=O)Nc1cccnc1,3.9%
CC(=O)Oc1ccccc1C(=O)Oc1ccc(/C=N/n2cnnc2)cc1,215.9%[activator]
C=CCn1c(SCc2nc3ccccc3[nH]2)nnc1-c1ccncc1,?
CCN1CCN(c2ncc(C(=O)Nc3cc(Cl)ccc3OC)c3ccccc23)CC1,-16.9%
CC(C)=C(NC(=O)c1ccccc1)C(=O)NCCCC(=O)O,10.1%
CC1(C)CNC(=O)c2sc(NC(=O)CN3CCOCC3)nc2C1,-1.3%
O=C(Nc1ccc(Cl)cc1)N(Cc1cccnc1)Cc1ccco1,-4.1%
COC(=O)[C@H]1C2CCC(C(=O)OC)(CC2)[C@H]1C(=O)OC,4.8%
O=C(Nc1ccccc1)NC1CS(=O)(=O)CC1O (stereo not drawn),-7.6%
COc1ccc(C)cc1NC(=O)CN1C(=O)c2ccccc2S1(=O)=O,9.9%
CC[N+](C)(CC)CCC[n+]1c(-c2ccccc2)c2cc(N)ccc2c2ccc(N)cc21,-9.3%[25.6 µM]
OC[C@@H]1O[C@@H](n2cnc3c(N[C@H]4CCC[C@@H]4O)ncnc32)[C@H](O)[C@H]1O,-8.7%
Brc1ccc(-c2csc(/N=C/N3CCOCC3)n2)cc1,0.3%
Cc1cc(-n2c(C)cc(C(=O)CN3C(=O)NC4(CCCCC4)C3=O)c2C)no1,-10.7%
COc1ccc(C2C(C(C)=O)=C(O)C(=O)N2CCc2ccccc2)c(OC)c1 (stereo not drawn),-20.6%

# Next structures follow.
SMILES,HSD17B inh
O=C1OC(c2ccc(O)cc2)(c2ccc(O)cc2)c2ccccc21,2.6%&4.1%
COCCn1c(=O)c(C)nc2cnc(Nc3ccccc3)nc21,-19.1%
COc1ccccc1Cc1noc(C(C)(C)NC(=O)c2ccccc2)n1,-1.1%
Cc1cc(NS(=O)(=O)c2ccc(NC(=O)CCCOc3ccc(Cl)cc3)cc2)no1,-4.4%
O=C(Cn1nc(Cc2ccncc2)c2ccccc2c1=O)N1CCc2ccccc2C1,10.6%
CC(=NCC1CCNCC1)C1=C(O)CC(C)(C)CC1=O,7.9%
CCOC(=O)C1(O)Oc2cc(OC)cc(OC)c2C(=O)C1c1ccccc1 (stereo not drawn),-2.3%
O=C(Cn1ncc2ccccc21)N1CCN(c2cccc(C(F)(F)F)c2)CC1,-29.7%
CC(C(=O)N1CCOCC1)N1c2cccc3cccc(c23)S1(=O)=O (stereo not drawn),31.6µM*
CCSc1nnc(NC(=O)CSc2ncccn2)s1,4.3%
CC1CCCC(NC(=O)CSc2nnnn2C)C1C (stereo not drawn),16.6%
COC(=O)C(O)(CC(=O)Nc1ccc(OC(F)(F)F)cc1)C(F)(F)F (stereo not drawn),4.9%
O=C(c1ccc(F)cc1)N1CCN(C2CC3CCC2C3)CC1 (stereo not drawn),6.4%

# Shown field by field: part of the list above
compound: CCOC(=O)C1(O)Oc2cc(OC)cc(OC)c2C(=O)C1c1ccccc1 (stereo not drawn)
  HSD17B inh: -2.3%

compound: O=C(Cn1ncc2ccccc21)N1CCN(c2cccc(C(F)(F)F)c2)CC1
  HSD17B inh: -29.7%

# A portion of the library. The share of hits here may be higher or lower than overall.
